Source: PubChem (National Center for Advancing Translational Sciences (NCATS))
Rango-impB inh: qHTS Assay for Inhibitors of Rango (Ran-regulated importin-beta cargo) - Importin beta complex formation. Rango CFP/YFP FRET sensor + importin beta, 45 min. Potency, µM (top dose mostly 92.2 µM), for the others: top-dose inhibition of complex formation. 340,000 tested, 0.031% active. AID 540263, 2011; active = rising FRET ratio curve, often small or poorly fitted; inconclusive = mostly compound fluorescence or quenching in the first reads; inactive = flat curves in all reads;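 further: potency means the concentration at half of the fitted maximal effect; 0% = DMSO wells and 100% = buffer wells lacking importin beta; nearly all actives have a fitted effect of over 15% in size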
Target sequence (Q14974 whole entry, looked up): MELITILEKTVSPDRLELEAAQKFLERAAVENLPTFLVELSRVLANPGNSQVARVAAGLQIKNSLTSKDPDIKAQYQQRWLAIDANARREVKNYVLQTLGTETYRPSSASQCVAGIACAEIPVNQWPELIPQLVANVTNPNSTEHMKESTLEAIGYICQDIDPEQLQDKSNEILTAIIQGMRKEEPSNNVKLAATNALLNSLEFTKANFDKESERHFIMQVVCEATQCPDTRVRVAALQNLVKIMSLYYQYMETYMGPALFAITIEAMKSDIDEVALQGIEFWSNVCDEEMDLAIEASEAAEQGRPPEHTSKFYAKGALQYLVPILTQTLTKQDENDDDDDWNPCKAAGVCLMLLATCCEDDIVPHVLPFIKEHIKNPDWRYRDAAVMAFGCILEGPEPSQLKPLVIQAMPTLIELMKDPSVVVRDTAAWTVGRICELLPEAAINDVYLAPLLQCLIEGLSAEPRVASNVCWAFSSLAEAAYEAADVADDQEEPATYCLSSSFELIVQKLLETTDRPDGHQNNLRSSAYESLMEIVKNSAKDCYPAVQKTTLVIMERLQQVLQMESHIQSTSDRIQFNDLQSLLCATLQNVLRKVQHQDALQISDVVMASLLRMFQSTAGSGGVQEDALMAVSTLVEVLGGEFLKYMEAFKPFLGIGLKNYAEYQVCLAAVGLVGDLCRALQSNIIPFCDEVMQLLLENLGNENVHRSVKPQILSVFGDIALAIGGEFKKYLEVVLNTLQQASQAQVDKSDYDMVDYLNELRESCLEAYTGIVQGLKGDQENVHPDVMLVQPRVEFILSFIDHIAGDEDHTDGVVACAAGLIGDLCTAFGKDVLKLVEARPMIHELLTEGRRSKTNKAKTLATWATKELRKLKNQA
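FRET biosensor (snurportin 1 IBB flanked by EYFP and cerulean), 50 nM, with compound 5 min, then 0.125 microM importin beta in PBS, 1 mM DTT, 0.02% Tween-20, 0.1% BSA. CFP/YFP ratio read after 45 min at room temperature; pre-read flags interference.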
Rango release inh: qHTS Assay for Inhibitors of RanGTP induced Rango (Ran-regulated importin-beta cargo) - Importin beta complex dissociation; Biochemical FRET Rango-importin beta, RanGTP-induced dissociation; Potency, µM (top dose mostly 46.1 µM), for inactives: top-dose activity change, negative = inhibition; 340,000 tested, 0.071% active; AID 540253, 2011; Snurportin-1 (Homo sapiens) + GTP-binding nuclear protein Ran (Homo sapiens) + Importin …; active means falling FRET ratio curve, often poorly fitted, with flat reads before Ran was added; inconclusive means other falling curves, or compound fluorescence or quenching; inactive means flat or rising ratio curve;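 further: potency means the concentration at half of the fitted maximal effect; % of control where 0% means no effect; nearly all actives have a fitted effect of over 45% in size; -100% = wells without RanGTP and RCC1; the record marks most hits as doubtful in a second field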
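Compounds preincubate 5 min with complex of recombinant Rango and importin beta in PBS with 1 mM DTT. Ran (0.6 uM) loaded with 2 mM GTP plus 0.2 uM RCC1 starts dissociation; FRET is recorded 45 min later.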
miR-21 reporter: qHTS Assay for Modulators of miRNAs and/orActivators of miR-21; HeLa miR-21 FLuc reporter, luciferase, 48 h; Potency, µM (top dose mostly 38.3 µM), without a hit: at the highest dose reporter change, positive = more light; 340,000 tested, under 10 active; AID 2288, 2010; active = well fitted rising curve with a large enough effect; inconclusive = small, poorly fitted or top-dose-only effect; inactive = no such curve, though single readings can be large or run the other way;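 further: % of control where 0% means no effect; miR-21 action dims this reporter so a rising signal means less miR-21 action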
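Luminescence from a firefly luciferase reporter carrying a miR-21 binding site downstream, stably expressed under a CMV promoter in HeLa cells that make miR-21 endogenously, reports miRNA modulation after 48 h compound exposure up to approximately 40uM final.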
GLA inh pH 4.5: qHTS Assay for Inhibitors of Human alpha-Galactosidase at pH 4.5. Alpha-galactosidase A (Homo sapiens), P06280. purified enzyme, 4-MU-alpha-Gal fluorescence, pH 4.5. activity change, negative = inhibition, % at 105 µM. 230,000 tested, under 10 active; inconclusive = small, poorly fitted or top-dose-only inhibition, or a rising curve; inactive = flat fitted curve, though single readings scatter; no compound was filed as active;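 further: 0% = full activity with enzyme and -100% = basal without enzyme; dose as in the result columns while the protocol names 77 µM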
* hit, by the source's call; ? = inconclusive; nt = not tested or not shown; [ ] = remark or other dose.

Order of values – Rango-impB inh	Rango release inh	miR-21 reporter	GLA inh pH 4.5
COC(=O)C1C(O)C(C)C(O)C(C)(O)/C=C\C=C(/C)C(=O)Nc2c(C)c(OC(C)=O)c3c(c2O)C(=O)C(C)=C2OCOC(=C23)/C(C)=C/C(C)(O)C(O)C(C)C1O (centres undefined)
→ ?	-24%	5%	-5
COC(=O)c1ccc(CN2CCN(Cc3ccccc3)C(CCO)C2)cc1 (centres undefined)
→ -1.7%	-8%	-5%	-9
CC#CCN1C(=O)N[C@@H](c2ccccc2)C(C(=O)OC)=C1C
→ -4.3%	16%	nt	1
COc1ccc(C2c3c(oc4ccccc4c3=O)C(=O)N2c2ccccn2)cc1 (centres undefined)
→ -0.5%	-19%	1%	2
CSc1nnc(-c2ccccc2)c(-c2ccccc2)n1
→ -1.6%	-4%	-9%	4
CC(OC(=O)C12CC3CC(CC(O)(C3)C1)C2)C(N)=O (centres undefined)
→ 0.4%	12%	1%	3[21.1 µM]
CCOC(=O)Cc1c(Cl)c2ccccc2[nH]c1=O
→ 0.7%	-11%	4%	8
COc1ccc([C@H]2CC(=O)C=C(c3cccc(Br)c3)C2)cc1
→ ?	-8%	nt	nt
COc1ccc(-c2cc(=O)[nH]c(=O)[nH]2)cc1
→ 1.2%	-15%	-5%	0
O=C1CCNc2ccc(-c3ccccc3)cc21
→ ?	?	-67%	-2
O=C(CCCN1C(=O)c2cccc3cccc(c23)C1=O)Nc1ccon1
→ 0.2%	7%	-17%	2
COP(=O)(CN(Cc1ccccc1)C(=S)Nc1c(C)cccc1C)OC
→ 4.8%	-12%	-2%	0
Cc1ccc(S(=O)(=O)N2CCN(c3nc(C)c4c(c3C#N)CC(C)(C)OC4)CC2)cc1
→ -0.1%	12%	-15%	-9
COc1ccc(CNC(=O)CN2C(=O)CSc3ccc(S(=O)(=O)N4CCCCC4)cc32)cc1
→ -2.1%	11%	-2%	nt
O=C(CSc1nc2ccc(Cl)cc2[nH]1)N1CCN(C(=O)c2ccco2)CC1
→ 0.3%	5%	-2%	1
O=C(COc1ccccc1F)NNC(=O)c1cc(Br)ccc1Cl
→ 0.5%	-10%	nt	nt
CC(=O)c1ccc(NS(=O)(=O)c2ccc(C(C)(C)C)cc2)cc1
→ 0.0%	-11%	3%	-1
C=CCNC(=S)NCCO
→ -2.1%	-1%	-2%	-7
C/C(=N\N1CCN(Cc2ccccc2Cl)CC1)c1ccc(F)cc1
→ 0.3%	16%	-4%	0
CCCC(=O)Nc1cccc(Oc2nc(C)cc(C)c2C#N)c1
→ 0.1%	-4%	-12%	3

A different layout for 2 compounds above:
canonical_smiles	Rango-impB inh	Rango release inh	miR-21 reporter	GLA inh pH 4.5
COc1ccc(C2c3c(oc4ccccc4c3=O)C(=O)N2c2ccccn2)cc1 (centres undefined)	-0.5%	-19%	1%	2
O=C1CCNc2ccc(-c3ccccc3)cc21	?	?	-67%	-2

The list goes on:
Order of values – Rango-impB inh	Rango release inh	miR-21 reporter	GLA inh pH 4.5
O=C(Nc1ccccc1)c1c2c(nc3ccccc13)CCCC2
→ -2.9%	-1%	5%	-4
COc1ccc2c([N+](=O)[O-])c(Cl)[nH]c2c1
→ -2.3%	1%	-20%	-26
COc1ccc(-n2c(=O)c3ccccc3c3ccccc3c2=O)cc1
→ ?	36%	-4%	4
CCOC(=O)[C@H]1[C@H]2COc3ccc(Cl)cc3[C@@H]2N2C(=O)CN(C)C(=O)[C@@]12C
→ -0.5%	9%	nt	nt
CCCN(CCC)C(=O)C1c2ccccc2Oc2ccccc21
→ 2.4%	-11%	-1%	-2
O=C(NCc1ccccc1)C(c1ccncc1)N(C(=O)c1csnn1)C1CC1 (centres undefined)
→ 3.5%	14%	-2%	-18
Cc1ccc(C(=O)Cn2nnc3c(sc4nc5c(c(-c6ccccc6)c43)CCC5)c2=O)cc1
→ -3.1%	-13%	-3%	-4
O=C(NCc1cccs1)c1ccncc1
→ ?	11%	-5%	4
COc1cccc(-c2cc(C(F)(F)F)n3ncc(C(=O)NCC4CCCO4)c3n2)c1 (centres undefined)
→ ?	0%	-3%	-1
O=C(CCNC(=O)c1ccccc1Cl)N/N=C\c1ccc(O)cc1
→ 3.1%	-17%	-4%	6
CCCNC(=O)C(Cc1ccccc1)NS(=O)(=O)c1cccc2nsnc12 (centres undefined)
→ 4.8%	-4%	-2%	-5
CCN1CCN(Cc2ccc3c(c2)Cc2ccccc2-3)CC1
→ nt	nt	-2%	7
O=C(CCNS(=O)(=O)c1ccc(Br)cc1)NCc1cccs1
→ 6.8%	-12%	2%	-2
O=C1c2cccnc2C(Nc2ccc(S(=O)(=O)N3CCCCC3)cc2)N1Cc1ccccc1 (centres undefined)
→ -4.1%	-6%	0%	4
O=C(O)c1ccc(COc2c(F)c(F)cc(F)c2F)cc1
→ -0.2%	16%	-22%	12
CC(C)COc1ccc(CNC(=S)Nc2ccccc2)cc1Cl
→ -3.9%	-9%	13%	nt
CCNC(=O)CC1C(=O)N(c2ccccc2)C(=O)N1Cc1ccc(OC)cc1 (centres undefined)
→ 1.3%	4%	-8%	4
Cn1c(N)c(C(=O)CSc2nnc(-c3ccccc3F)n2N)c(=O)n(C)c1=O
→ 0.6%	17%	1%	6
C=CCNc1nc2c(c(=O)n(C)c(=O)n2C)n1Cc1ccc(F)cc1
→ -0.1%	24%	17%	6
O=C(CNC(=S)N(CCCN1CCOCC1)Cc1cccs1)NCCN1CCOCC1
→ -3.0%	-1%	-6%	6
CCCn1c(NC(=O)C23CC4CC(CC(O)(C4)C2)C3)nc2ccccc21
→ 0.0%	-16%	7%	-3
COC(=O)Cn1c(=NC(=O)c2nc3ccccc3s2)sc2cc(S(N)(=O)=O)ccc21
→ 0.2%	34%	-1%	-3
O=C(NC1CCCCCCC1)c1cc([N+](=O)[O-])ccc1Cl
→ -2.1%	-15%	13%	nt
CC(=O)c1cc(F)c(N2CCN(C(=O)C(C)(C)C)CC2)cc1C
→ -0.8%	-5%	5%	6
Cc1nc(NC(=O)c2ccccc2)sc1-c1csc(NCc2ccccc2)n1
→ -2.5%	-3%	0%	-9
Cc1ccc(C(=O)OCC(=O)Nc2ccc3[nH]c(=O)[nH]c3c2)cc1S(=O)(=O)N1CCOCC1
→ 5.9%	10%	nt	nt
Cc1ccc(S(=O)(=O)Cc2cc(-c3ccc(Cl)cc3)no2)cc1
→ 0.6%	-7%	-6%	-1
COc1cc(CN(C)C)cc(C=O)c1O
→ 0.4%	-22%	1%	3
NC(N)=Nc1nc2ccccc2o1
→ -0.9%	0%	-17%	-2
O=C(/C=C/c1ccccc1)NC(=S)Nc1cccnc1
→ 7.6%	3%	-9%	-1
C#CCOCCOCCOCCNc1nc(N2CCN(C(=O)CCCCCCCCCCNC(=O)[C@@H](CCSC)n3cc(CCO)nn3)CC2)nc(N2CCN(C(=O)CCCCCCCCCCNC(=O)[C@H]([C@@H](C)CC)n3cc(CCCCN=C(N)N)nn3)CC2)n1
→ 14%	-2%	nt	nt
CCC(C)C(NC(=O)OC(C)(C)C)C(=O)NCc1ccco1 (centres undefined)
→ 2.3%	6%	0%	-5
O=C1CC(N2CCN(c3ccccc3Cl)CC2)C(=O)N1c1cccc(F)c1 (centres undefined)
→ -2.6%	0%	-7%	0
CCOC(=O)CSc1ccc(C(=O)NCCCN2CCOCC2)cc1[N+](=O)[O-]
→ -0.7%	0%	-3%	nt
C=CCn1cccc(C(=O)Nc2ccc(OCC)cc2)c1=O
→ -0.9%	8%	-21%	-19
CCN(CC)CCN(C(=O)c1cccc(N2C(=O)CCC2=O)c1)c1nc2cc3c(cc2s1)OCO3
→ -0.2%	15%	-8%	0
Cc1ccc([N+](=O)[O-])cc1NC(=O)Nc1onc(C)c1C
→ 1.3%	25%	-4%	-20
O=C(/C=C/c1ccccc1)NC(=S)NNC(=O)c1ccco1
→ -7.9%	?	-46%	9
O=C(C1=C(O)C(=O)N(CCCn2ccnc2)C1c1cccc(Br)c1)c1ccco1 (centres undefined)
→ -0.4%	1%	-6%	nt
Cc1ccc(Cn2c(C3CCCN3c3nc(-c4ccc(F)cc4)cs3)nc3cc(C(F)(F)F)ccc32)cc1 (centres undefined)
→ -0.9%	-3%	nt	nt
O=C(OC(C(=O)NCC1CCCO1)c1ccc(F)cc1)c1cccs1 (centres undefined)
→ 0.2%	0%	0%	-4
Cc1ccc(CN2CCN(CC(=O)N/N=C/c3ccc(C)o3)CC2)cc1
→ 1.5%	-13%	-2%	0
O=C(O)c1ccc(N/N=C/c2ccc3ncccc3c2)cc1
→ ?	?	-4%	-4
Cc1cccc(NC2(C(=O)O)CCCC2)c1
→ -1.8%	-5%	nt	nt
O=C(Nc1ccc(N2CCOCC2)cc1)c1cccnc1
→ -1.1%	1%	-40%	2
O=C(N/N=C/c1ccccc1F)c1cccc(NC(=O)c2ccccc2Cl)c1
→ 1.5%	8%	-14%	nt
COc1ccc(S(=O)(=O)N2CCC(C(=O)c3ccc4c(c3)OCCO4)CC2)cc1
→ 2.0%	-1%	-8%	-9
O=C(NCc1cccnc1)Nc1ccc(F)cc1F
→ 0.5%	-3%	-22%	7
CC(C)c1ccc(OCc2ccc(C(=O)N3CCCC3)o2)cc1
→ 0.6%	1%	-26%	nt
COc1ccccc1C(CNC(=O)CCNS(=O)(=O)c1ccc(Br)cc1)N1CCCC1 (centres undefined)
→ -5.1%	-13%	nt	nt

In the list so far, these have a Cl atom.
Order of values – Rango-impB inh	Rango release inh	miR-21 reporter	GLA inh pH 4.5
CCOC(=O)Cc1c(Cl)c2ccccc2[nH]c1=O
→ 0.7%	-11%	4%	8
O=C(CSc1nc2ccc(Cl)cc2[nH]1)N1CCN(C(=O)c2ccco2)CC1
→ 0.3%	5%	-2%	1
O=C(COc1ccccc1F)NNC(=O)c1cc(Br)ccc1Cl
→ 0.5%	-10%	nt	nt
C/C(=N\N1CCN(Cc2ccccc2Cl)CC1)c1ccc(F)cc1
→ 0.3%	16%	-4%	0
COc1ccc2c([N+](=O)[O-])c(Cl)[nH]c2c1
→ -2.3%	1%	-20%	-26
CCOC(=O)[C@H]1[C@H]2COc3ccc(Cl)cc3[C@@H]2N2C(=O)CN(C)C(=O)[C@@]12C
→ -0.5%	9%	nt	nt
O=C(CCNC(=O)c1ccccc1Cl)N/N=C\c1ccc(O)cc1
→ 3.1%	-17%	-4%	6
CC(C)COc1ccc(CNC(=S)Nc2ccccc2)cc1Cl
→ -3.9%	-9%	13%	nt
O=C(NC1CCCCCCC1)c1cc([N+](=O)[O-])ccc1Cl
→ -2.1%	-15%	13%	nt
Cc1ccc(S(=O)(=O)Cc2cc(-c3ccc(Cl)cc3)no2)cc1
→ 0.6%	-7%	-6%	-1
O=C1CC(N2CCN(c3ccccc3Cl)CC2)C(=O)N1c1cccc(F)c1 (centres undefined)
→ -2.6%	0%	-7%	0
O=C(N/N=C/c1ccccc1F)c1cccc(NC(=O)c2ccccc2Cl)c1
→ 1.5%	8%	-14%	nt

A portion of the library. The share of hits here may be higher or lower than overall.
